NS1 inh – qHTS Assay for Inhibitors of Influenza NS1 Protein Function | S. cerevisiae slowed by influenza A NS1, growth recovery by OD600 | Potency, µM (titrated, usually from 46.1 µM), for inactives: at the top dose activity, positive = more growth | AID 2326, 2010 | 0.4% of 270,000 active; active means well fitted rising curve with a large enough effect; inconclusive means small, poorly fitted or top-dose-only effect; inactive means no such curve, though single readings can be large or run the other way; also: nearly all actives have a fitted effect of over 50% in size
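Read-out: OD600 growth recovery of NS1-expressing budding yeast. Cells grown overnight at 30C in -URA glucose medium, washed, resuspended and diluted 1:100 in 2% galactose assay medium, pH 6.0. Same strain lacking NS1 served as positive control.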
StopGo reporter – High Throughput Screening for Foot and Mouth Disease Virus Antivirals. Potency, µM (titrated, usually from 57.9 µM), without a hit: at the highest dose signal change, negative = less light. human cells with a luciferase reporter of 2A StopGo recoding; control for the full effect not named in the record. 1.2% of 410,000 active; active = well fitted falling curve with a large enough effect; inconclusive = small, poorly fitted or top-dose-only effect; inactive = no such curve, though single readings can be large or run the other way; tested in HEK293T cells; also: % is scaled to controls: 0 for no effect and ±100 for the full control effect; nearly all actives have a fitted effect of over 45% in size; luciferase light after 4 h
LASV entry inh – qHTS for Inhibitors of binding or entry into cells for Lassa Virus; Lassa virus pseudotype entry inhibition, cell reporter; control for the full effect not named in the record; Potency, µM (top dose mostly 37.9 µM), inactives show at the highest dose activity change, negative = inhibition, actives largely listed as inhibitors; 1.2% of 300,000 active; active means well fitted inhibition curve with a large enough effect; inconclusive means small, poorly fitted or top-dose-only effect, or effect the other way; inactive means flat fitted curve, though single readings scatter; tested in HEK293 cells; also: % is scaled to controls: 0 for no effect and ±100 for the full control effect; nearly all actives have a fitted effect of over 50% in size; luciferase read-out
Cruzain noTriton – qHTS Assay for Promiscuous and Specific Inhibitors of Cruzain (without detergent); 2.3% of 200,000 active; purified cruzain, Z-FR-AMC fluorescence, no detergent; AID 1476, 2009; Potency, µM, without a hit: max response, negative = inhibition, usual class: inhibitors;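 also: plate controls were enzyme without inhibitor for no effect and buffer without enzyme for full effect; nearly all actives have a fitted effect of over 40% in size; top concentration of the series not given in the record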
Target sequence (P25779 123-467 limits assumed): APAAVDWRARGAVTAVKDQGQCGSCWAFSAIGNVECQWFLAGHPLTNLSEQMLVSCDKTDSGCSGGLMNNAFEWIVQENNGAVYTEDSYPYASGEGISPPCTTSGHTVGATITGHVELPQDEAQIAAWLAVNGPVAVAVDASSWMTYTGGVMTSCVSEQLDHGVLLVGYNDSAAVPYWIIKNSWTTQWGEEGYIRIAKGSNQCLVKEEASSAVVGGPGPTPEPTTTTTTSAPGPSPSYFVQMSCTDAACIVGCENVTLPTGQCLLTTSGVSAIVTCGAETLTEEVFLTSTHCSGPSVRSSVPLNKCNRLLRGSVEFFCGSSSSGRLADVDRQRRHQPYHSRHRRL
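Purified cruzain at 1.5 nM, pre-incubated 15 min with compound at room temperature in 100 mM sodium acetate pH 5.5, 5 mM DTT, 0.00005% Triton X-100. Reaction started with 2 uM Z-FR-AMC; AMC fluorescence increase over 60 s gives rate.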
Cruzain Triton – qHTS Assay for Promiscuous and Specific Inhibitors of Cruzain (with detergent); purified cruzain, Z-FR-AMC fluorescence, 0.01% Triton; Potency, µM, for inactives: max response, negative = inhibition, hits mostly inhibitors; 0.43% of 200,000 active;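 also: plate controls were neutral wells for no effect and buffer without enzyme for full effect; nearly all actives have a fitted effect of over 40% in size; top concentration of the series not given in the record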
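Compounds were screened in titration against cruzain (1.5 nM) with 0.01% Triton X-100 to counter colloidal aggregation. Activity was the AMC fluorescence increase over 60 s after adding 2 uM Z-FR-AMC at pH 5.5.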
RE007 growth inh – qHTS Assay for Inhibitors of the HIV-1 protein Vpr. Potency, µM (highest dose often 92.2 µM), for inactives: top-dose activity change, negative = less growth. 0.21% of 360,000 active. S. pombe RE007 Vpr strain, BacTiter-Glo ATP luminescence, 24 h; control for the full effect not named in the record; active = well fitted falling curve with a large enough effect; inconclusive = small, poorly fitted or top-dose-only effect; inactive = no such curve, though single readings can be large or run the other way;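 also: % is scaled to controls: 0 for no effect and ±100 for the full control effect; nearly all actives have a fitted effect of over 50% in size; the assay follows cell death caused by Vpr and the record does not say whether a fall means rescue or toxicity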
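Fission yeast RE007 carrying one integrated HIV-1 vpr copy, seeded at OD 0.01 in PMG+AL medium with 23 nL pinned compound. Grown 24 h at 30 degrees; viability read by BacTiter-Glo luminescence after 5 min.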
SARS PLP yeast – qHTS of Yeast-based Assay for SARS-CoV PLP. S. cerevisiae expressing SARS-CoV PLpro, growth rescue; control for the full effect not named in the record. AID 485353, 2010. Potency, µM (titrated, usually from 32.9 µM), for inactives: at the highest dose activity, positive = growth rescue. 0.19% of 330,000 active; active means well fitted rising curve with a large enough effect; inconclusive means small, poorly fitted or top-dose-only effect; inactive means no such curve, though single readings can be large or run the other way; also: 0% is about no effect; nearly all actives have a fitted effect of over 55% in size; growth read by luminescence after 48 h
MARV entry inh – qHTS for inhibitors of binding or entry into cells for Marburg Virus | Marburg virus pseudotyped entry inhibition, cell reporter; control for the full effect not named in the record; about a third of the inactives were read at about 46 µM | Potency, µM (top dose mostly 37.8 µM), without a hit: top-dose activity change, negative = inhibition, most hits filed as inhibitors | 1.8% of 300,000 active; active = well fitted inhibition curve with a large enough effect; inconclusive = small, poorly fitted or top-dose-only effect, or effect the other way; inactive = flat fitted curve, though single readings scatter; tested in HEK293 cells; about a fifth of its hits are not listed in these tables; also: % is scaled to controls: 0 for no effect and ±100 for the full control effect; luciferase read-out
* marks the source's active call; other numbers are inactive results; u = inconclusive; x = not tested or not shown; & = joins results of further samples; [ ] = dose if it differs, or a comment. Unless noted, calls follow the shape of the dose curve; as a rule, active = well fitted curve in the direction sought with a large enough effect; inconclusive = small, poorly fitted or top-dose-only effect, or another doubt; inactive = no such curve, though single readings can be large; an effect the other way counts as inactive or inconclusive. Potency is read from the fitted curve at half-maximal effect.

SMILES	NS1 inh	StopGo reporter	LASV entry inh	Cruzain noTriton	Cruzain Triton	RE007 growth inh	SARS PLP yeast	MARV entry inh
O=C(NCc1ccccc1Cl)C1CCN(S(=O)(=O)N2CCCCC2)CC1	-17%	17%	4%	11%	-4.7%	14%	0%	3%
COC(=O)OCC12CCC(O1)C1(C)C(=O)OCC21 (stereo not given)	1%	-11%	-2%	-4%	-0.3%	6%	0%	-11%
COc1ccc(CCN2C(=O)CC(Cc3ccc(Br)cc3)C2=O)cc1OC (stereo not given)	-10%	u	-24%	u	-5.1%	-11%	-20%	u
CC(NC(=O)CCC(=O)N1CCCCCC1)c1ccccc1 (stereo not given)	5%	9%	21%[46.1 µM]	x	x	0%	6%	-11%[46.1 µM]
COc1ccc(-n2cnnc2SCC(=O)c2ccc(S(=O)(=O)N3CCOCC3)cc2)cc1	1.8µM*	15%	0%	u	-2.8%	-5%	4%	-3%
CC12CCC(=O)N1C(C(=O)Nc1ccc(Br)cc1Cl)CS2 (stereo not given)	-3%	-24%	4%	x	x	-5%	18%	-8%
COc1cc(CNc2ncn[nH]2)ccc1OCc1cccc(C)c1	2%	50%[activator]	x	x	x	3%	0%	x
O=C(O)Cc1sc(-c2ccccc2)nc1-c1ccccc1	-68%	21%	16%	-3%	-8.1%	-2%	5%	14%
CCN(c1ccccc1)c1nnc(NC(=O)Nc2cccc(Br)c2)s1	x	0%	0%[46.1 µM]	u	-3.3%	x	x	-36%[46.1 µM]
CCCOc1ccc(N2C(=O)CC(N(CCc3ccccc3)C(=O)c3ccccc3)C2=O)cc1 (stereo not given)	3%	-14%	-2%	x	x	-2%	0%	28%
COc1ccccc1N1CCN(Cc2nc3ccccc3c(=O)n2CC(C)=O)CC1	-5%	0%	10%	13%	-1.9%	-4%	-2%	-3%&-5%
CC(C)(O)CC[C@@H](O)[C@](C)(O)[C@H]1CC[C@@]2(O)C3=CC(=O)[C@@H]4C[C@@H](O)[C@@H](O)C[C@]4(C)C3CC[C@]12C (stereo not given in full)	4%	-14%	x	x	x	7%	1%	x
CC(C)c1ccc(OCC(=O)NCCO)cc1	-2%	20%	u	8%	-0.8%	5%	1%	u
O=C(CN1CCOC1=O)N1CCCC(Nc2ccc(F)c(F)c2)C1 (stereo not given)	-5%	-7%	x	x	x	-1%	0%	x
Cc1ccccc1C(=O)N(Cc1nc2ccccc2c(=O)[nH]1)C1CCCC1	1%	-2%	-2%[46.1 µM]	x	x	-18%	1%	u
CCCOc1ccc(C(=O)CCC(=O)NNC(=O)Cn2nc(C)cc2C)cc1	x	-9%	6%	x	x	18%	-1%	-2%
O=C(Nc1ccccc1)c1ccccc1NC(=O)c1ccccc1[N+](=O)[O-]	x	-14%	-9%	x	x	-19%	x	u
COc1ccccc1OCCNc1cc(N2CCOCC2)ccc1[N+](=O)[O-]	9%	-1%	8%	26%	-7.5%	-7%	-9%	30%
Cc1onc(-c2ccccc2)c1C(=O)N1CCN(c2ccccc2F)CC1	-6%	-14%	-14%[46.1 µM]	x	x	-2%	-2%	u
CCCCNC(=O)Nc1cc(C(F)(F)F)c[nH]c1=O	-3%	-2%	4%	-6%	-7.8%	-21%[3.69 µM]	8%	21%
c1ccc(Nc2ccccn2)cc1	-1%	25%	5%	-2%	-3.8%	-4%	1%	1%
COc1cccc(C(CC(=O)NCc2ccco2)NS(=O)(=O)c2ccc(C)cc2)c1OC (stereo not given)	-4%	9%	-11%	0%	3.8%	24%	4%	3%&3%
CCn1c2ccccc2c2cc(NC(=O)COc3ccccc3)ccc21	-1%	-26%	-18%	u	-5.5%	-2%	3%	1%
N=c1oc2ccccc2cc1-c1nc(-c2ccccc2)cs1	15%	26%	-2%	u	-14%	7%	-3%	13%
CCC(=O)N1N=C2C3CCN(CC3)C2C1c1ccc(C)cc1 (stereo not given)	2%	0%	12%	2%	0.3%	5%	13%	-8%
CC(NC(=O)COc1ncnc2cc([N+](=O)[O-])ccc12)c1ccccc1 (stereo not given)	16%	-28%	14%	-13%	-5.6%	5%	-9%	-16%
COc1ccc([N+](=O)[O-])cc1-n1cnnn1	-1%	-12%	u	x	x	0%	-1%	-4%
CCOC(=O)Nc1ccc2c(c1)N(C(=O)CN1CCN3CCCC3C1)c1ccccc1CC2 (stereo not given)	-4%	10%	u	9%	-0.2%	13%	7%	-27%&-27%
Cc1ccc(S(=O)(=O)c2nc(-c3cccs3)oc2SCc2ccc(F)cc2)cc1	x	5%	u	-15%	-5.3%	x	x	u
CCC(=O)N1N=C(c2ccccc2)CC1c1ccccc1 (stereo not given)	-10%	0%	-10%	x	x	-11%	-3%	-5%

In the list so far, these contain an NH in an aromatic ring:
SMILES	NS1 inh	StopGo reporter	LASV entry inh	Cruzain noTriton	Cruzain Triton	RE007 growth inh	SARS PLP yeast	MARV entry inh
COc1cc(CNc2ncn[nH]2)ccc1OCc1cccc(C)c1	2%	50%[activator]	x	x	x	3%	0%	x
Cc1ccccc1C(=O)N(Cc1nc2ccccc2c(=O)[nH]1)C1CCCC1	1%	-2%	-2%[46.1 µM]	x	x	-18%	1%	u
CCCCNC(=O)Nc1cc(C(F)(F)F)c[nH]c1=O	-3%	-2%	4%	-6%	-7.8%	-21%[3.69 µM]	8%	21%

Other results follow.
SMILES	NS1 inh	StopGo reporter	LASV entry inh	Cruzain noTriton	Cruzain Triton	RE007 growth inh	SARS PLP yeast	MARV entry inh
CC1(c2ccc(OC(F)F)cc2)NC(=O)N(CC(=O)Nc2ccc(F)cc2)C1=O (stereo not given)	-5%	-18%	-4%	x	x	-1%	1%	10%[46.1 µM]
CC(=O)NC(c1ccccc1)c1cccnc1 (stereo not given)	-5%	0%	8%	3%	-1.2%	19%	8%	2%
COC(=O)c1c(NC(=O)c2cc(=O)c3ccc(C)c(C)c3o2)sc2c1CCCC2	x	-18%	-7%[46.1 µM]	-9%	-0.5%	x	x	18%[46.1 µM]
Cc1ccc(NC(=O)CSc2nc3ccccc3c(=O)n2CC2CCCO2)cc1 (stereo not given)	12%	19%	x	x	x	12%	4%	x
Cc1c(C(=O)NCc2ccc(F)cc2)sc2nc(-c3ccccc3)cn12	x	10%	-20%[46.1 µM]	4%	-11%	x	x	x
O=C(Nc1ccc(Cl)c(Cl)c1)Nc1ccon1	-94%	-5%	u	x	x	21%	-14%	u
COC(=O)c1ccccc1NC(=O)Cn1c(=O)cc(C)c2c(C)nn(-c3cccc(Cl)c3C)c21	x	-15%	25%[46.1 µM]	1%	-0.1%	x	x	x
CCCCN(Cc1ccccc1)S(=O)(=O)c1ccc2c(c1)CC(C)N2C(=O)CC (stereo not given)	x	33%[activator]	u	-11%	8.0%	x	x	7%[46.1 µM]
CC1=CSC2=NC(C(F)(F)F)(C(F)(F)F)NC(=O)N12	3%	-9%	x	x	x	5%	-1%	x
O=C(C(Cc1ccccc1)n1cccc1)N1CCN(C2CCCCC2)CC1 (stereo not given)	1%	-21%	x	3%	6.3%	4%	-7%	x
O=C(Nc1ccccc1)c1nnsc1S(=O)c1ccc(Cl)cc1 (stereo not given)	-154%	-16%	u	u	-3.0%	2.8µM*	-41%	u
COc1ccccc1CNC(=O)C1CCN(C(=O)N(C)C)CC1	-1%	-2%	4%	1%	5.8%	18%	8%	0%
CCOC(=O)N1CCC(NC(=O)Cc2ccccc2)CC1	1%	0%	x	x	x	1%	-8%	x
COc1ccccc1-c1cc(C(F)(F)F)nc(NCc2ccco2)n1	-84%	u	-20%	8%	-11%	-1%	-35%	u
Cn1nc(C(F)(F)F)c2cc(NC(=O)OCc3ccc(F)cc3)sc21	-123%	u	13%	-1%	-9.8%	-16%	-32%	-4%
COc1ccc(CNC(=O)c2ccc(N3CCCC3)c(NC(=O)NCc3ccc(F)cc3)c2)cc1	x	9%	2%[46.1 µM]	3%	-4.8%	x	x	x
COc1ccc(C(=O)Nc2cccc(/C=C/c3nc4ccccc4c(=O)[nH]3)c2)cc1	1%	u	x	x	x	-5%	-3%	x
Cc1c(Cl)cccc1NC(=O)Nc1c[nH]c(=O)[nH]c1=O	x	10%	25%[46.1 µM]	20µM*	1.6%	x	x	x
COc1cc(NC2c3ccccc3C(=O)N2Cc2ccc3c(c2)OCO3)cc(OC)c1OC (stereo not given)	13%	8%	x	-19%	-1.1%	-8%	-3%	x
Cc1ccn2c(NC3CCCC3)c(-c3cccs3)nc2c1	x	-24%	9%	x	x	-9%	-3%	-10%[46.1 µM]
COC(=O)c1[nH]c2ccccc2c1NC(=O)CN1CCC(C(N)=O)(N2CCCCC2)CC1	-2%	u	-15%	-7%	1.8%	0%	6%	u
CCOc1ccccc1NC(=O)N1CCc2c(sc(C)c2CC)C1c1ccccc1 (stereo not given)	x	-24%	-27%[46.1 µM]	u	-2.3%	x	x	x
CCOc1ccc(CNC(=O)CCC(=O)N2Cc3cccc(OC)c3Oc3ncccc32)cc1	8%	-8%	x	x	x	-3%	7%	x
COc1cccc(C2CC(c3ccccc3OC)n3nc(N)nc3N2)c1 (stereo not given)	4%	-3%	x	-16%	-0.3%	11%	6%	x
CC(=O)c1cc(C#N)c(Oc2cccc(C(F)(F)F)c2)nc1C	-56%	-12%	12%	2%	-7.3%	-7%	14%	3%[46.1 µM]
COc1ccc(OCCCCN(C)Cc2ccccc2)cc1	-9%	-14%	x	x	x	-1%	-1%	x
COC(=O)C(NS(C)(=O)=O)(c1c(C)[nH]c2ccccc12)C(F)(F)F (stereo not given)	2%	-1%	0%	2%	1.5%	12%	2%	u
CCOC(=O)c1sc(NC(=O)c2cc3n(n2)C(C(F)(F)F)CC(c2cccs2)N3)c(C(=O)OCC)c1C (stereo not given)	7%	-3%	3%	u	-2.9%	-22%	-5%	u
COc1ccc(C(=O)Nc2nccs2)cc1	0%	50%[activator]	u	x	x	0%	-5%	-27%
